VACV E9 pol inh – vaccinia E9 polymerase processive synthesis inhibition; normalized absorbance, % (test concentration not listed); 46,000 compounds, 0.94% hits; in vitro processive DNA synthesis, absorbance read-out; stronger effect = lower value; some inactives read as strong as hits;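 active means replicate mean up to 90% and picked by the depositor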;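 further: 100% = median of the test wells of a plate; 100 nL library stock went into each well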
Numbers without * were called inactive; & = joins results of further samples. These rows are one share of the data; count on the stated rates, not on these rows.

SMILES | VACV E9 pol inh
COc1ccc(/C=C2\CCc3ccccc3C2=O)cc1COc1ccc(F)cc1 | 100
CCOC(=O)N1CCC(NC(=O)c2ccc(C)cc2)CC1 | 124
Cn1c(C(=O)NCCCN2CCCC2)cc2c(=O)[nH]c3ccccc3c21 | 84
Cc1cc(C(F)(F)F)nc2sc(C(=O)c3cccc(Cl)c3)c(N)c12 | 100
CC1=NN(c2ccccc2)C(=O)C1C(=O)c1ccccc1Br (stereo unspecified) | 100
COC(=O)CC1=C(C)C(=O)CC2C(C)(C)CCC[C@]12C (stereo partly specified) | 102
CCc1cc2c(=O)c(-c3nc4ccccc4[nH]3)coc2c(CN2CCCC(C)C2)c1O (stereo unspecified) | 100
CCOC(=O)CS(=O)(=O)c1nc(-c2ccccc2)cc(C(F)(F)F)n1 | 111
O=C(COC(=O)c1ccc(Br)cc1)NCc1ccccc1 | 110
O=C(NCCCN1CCN(Cc2c(F)cccc2Cl)CC1)c1cccc(C(F)(F)F)c1 | 102
CCc1ccc(Nc2ncnc3sc(C)cc23)cc1 | 100
O=C(Nc1cccc(-c2nnc(-c3ccco3)o2)c1)C(c1ccccc1)c1ccccc1 | 99
N#CC1(c2cccc(Br)c2)C(=O)Nc2ccccc21 (stereo unspecified) | 79
c1ccc(COc2cnc(N3CCNCC3)nc2)cc1 | 112
NC(=O)c1ccc(CN2CCc3ccccc3C2)cc1 | 104
Cc1nc(C)c(C(=O)O)c(-c2ccc(F)cc2)c1C(=O)O | 96
BrCc1cn(-c2ccccc2)nc1-c1ccccc1 | 89
CC1=C(C(=O)Nc2ccccc2)C(c2ccccn2)C(C(=O)Nc2ccccc2)=C(C)N1 | 101
CCc1ccccc1NS(=O)(=O)c1ccc2[nH]cc(C(=O)NCC3CCCO3)c(=O)c2c1 (stereo unspecified) | 101
CN(C)CCc1cc2c(c3c1ccc1ccccc13)OCO2 | 11*
CCOC(=O)Cn1cnc2ccccc2c1=O | 100
Cc1cccc[n+]1C1[C@@H](c2cccnc2)C(C#N)=C([S-])N[C@]1(C)O (stereo partly specified) | 90
COc1ccc(C2SCC(=O)N2CCN2CCCCC2)cc1OC (stereo unspecified) | 99
CCN1CCN(C(c2cccs2)C(C)NC(=O)c2cccc(OC)c2)CC1 (stereo unspecified) | 100
CCCCC/C=C\C/C=C\CCCCCCCC(=O)O[C@@H](CO)COC(=O)CCCCCCCCCCCCCCCCC | 100
CN1C(=O)COc2ccc(C(=O)c3ccccc3C(=O)O)cc21 | 100
Cc1ccc(CNC(=O)c2ccc3c(c2)n(C)c(=O)c(=O)n3C)cc1 | 96
O=C(/C=C1\Sc2ccccc2NC1=O)NCCc1ccccc1 | 107
O=C(Nc1ccccc1O)c1sc2ccccc2c1Cl | 106
CC(=O)Nc1ccc(N2COc3ccc(Cl)cc3C2)cc1 | 101
O=S(=O)(/C=C/c1ccccc1)N1C=Cc2ccccc2C1c1c[nH]c2ccccc12 (stereo unspecified) | 99
CC(C)c1ccc(-c2csc3nc[nH]c(=O)c23)cc1 | 88
Cc1onc(-c2c(Cl)cccc2Cl)c1C(=O)N=CN(C)C | 96
CCSc1nnc(NC(=O)COc2ccc(Cl)cc2)s1 | 100
O=C(NCc1ccco1)C1CCN(c2nc3ccccc3[nH]2)CC1 | 109
O=C(Nc1ccccc1)Nc1ccc(Oc2ncnc3cc(Cl)ccc23)nc1 | 87
Oc1ccccc1CNCC1CCCO1 (stereo unspecified) | 95
Cc1cc(C)c2c(c1)OCN(Cc1ccc(Cl)cc1)C2 | 91
Cc1ccc2nc(Nc3nccc(C)n3)nc(C)c2c1 | 108
COc1cccc2ccc(Cl)nc12 | 99

In a second layout: entries from further up.
canonical_smiles	VACV E9 pol inh
CCOC(=O)Cn1cnc2ccccc2c1=O	100
Cc1cccc[n+]1C1[C@@H](c2cccnc2)C(C#N)=C([S-])N[C@]1(C)O (stereo partly specified)	90
COc1ccc(C2SCC(=O)N2CCN2CCCCC2)cc1OC (stereo unspecified)	99
CCN1CCN(C(c2cccs2)C(C)NC(=O)c2cccc(OC)c2)CC1 (stereo unspecified)	100
CCCCC/C=C\C/C=C\CCCCCCCC(=O)O[C@@H](CO)COC(=O)CCCCCCCCCCCCCCCCC	100
CN1C(=O)COc2ccc(C(=O)c3ccccc3C(=O)O)cc21	100
Cc1ccc(CNC(=O)c2ccc3c(c2)n(C)c(=O)c(=O)n3C)cc1	96
O=C(/C=C1\Sc2ccccc2NC1=O)NCCc1ccccc1	107
O=C(Nc1ccccc1O)c1sc2ccccc2c1Cl	106
CC(=O)Nc1ccc(N2COc3ccc(Cl)cc3C2)cc1	101
O=S(=O)(/C=C/c1ccccc1)N1C=Cc2ccccc2C1c1c[nH]c2ccccc12 (stereo unspecified)	99
CC(C)c1ccc(-c2csc3nc[nH]c(=O)c23)cc1	88
Cc1onc(-c2c(Cl)cccc2Cl)c1C(=O)N=CN(C)C	96
CCSc1nnc(NC(=O)COc2ccc(Cl)cc2)s1	100
O=C(NCc1ccco1)C1CCN(c2nc3ccccc3[nH]2)CC1	109
O=C(Nc1ccccc1)Nc1ccc(Oc2ncnc3cc(Cl)ccc23)nc1	87
Oc1ccccc1CNCC1CCCO1 (stereo unspecified)	95
Cc1cc(C)c2c(c1)OCN(Cc1ccc(Cl)cc1)C2	91
Cc1ccc2nc(Nc3nccc(C)n3)nc(C)c2c1	108
COc1cccc2ccc(Cl)nc12	99

New compounds follow.
SMILES | VACV E9 pol inh
COc1ccc(CNC(=O)CC2CCCCC2)cc1 | 79
Cn1cc(C(=O)O)c2ccccc21 | 85
COc1ccc(Cn2c(SCC#N)nc3ccc(N4CCOCC4)cc3c2=O)cc1 | 92
O=C(NCCN1CCN(c2ccccc2F)CC1)C1CCCN(S(=O)(=O)c2cnc[nH]2)C1 (stereo unspecified) | 99
Cc1ccc(N2CCN(C(=S)c3ccc(N(C)C)cc3)CC2)cc1 | 99
COc1ccccc1Nc1nc2ccccc2n1C | 97
O=c1[nH]c2cc(Cl)ccc2c(-c2ccccc2)c1SC1=NCCS1 | 100
Cc1ccc(C)n1CC1CCCO1 (stereo unspecified) | 96
COC(=O)c1c(N)sc2c1CCCCC2 | 94
COc1cccc(OCC(=O)Nc2ccncc2)c1 | 94
CCOc1cc(/C=C/C(=O)O)ccc1OCc1ccccc1 | 98
Cc1cc(O)c(C=Nc2ccc(I)cc2)c(=O)o1 | 102
CCOC(=O)c1cnc2ccc(OCC)cc2c1NCCCN1CCOCC1 | 100
Cc1nc2ccccc2nc1SCC(=O)c1ccccc1 | 101
Cc1cccn2cc(CNS(=O)(=O)c3cccc(F)c3)nc12 | 102
Cc1cc(=O)oc2cc(OCC(=O)c3ccccc3F)ccc12 | 92
CC(C)c1cc(C(C)C)c(S(=O)(=O)NCCC(=O)O)c(C(C)C)c1 | 100
O=C(Nc1ccc(Cl)cc1)c1c[nH]n2c(=O)cc(C3CCNCC3)nc12 | 102
O=C(Nc1ccc2nc(-c3ccccn3)[nH]c2c1)C1CCCCC1 | 100
CCOc1ccc(C(=O)OC2CC3CCC(C2)N3C)cc1 (stereo unspecified) | 100
O=C(Cc1cccc2ccccc12)NCCN1CCOCC1 | 107
Cc1ccc(/C=C2\SC(=S)N(CCCC(=O)O)C2=O)cc1 | 96
Clc1ccc(-c2onc3cc(-c4ccccc4)ccc23)cc1 | 100
Fc1ccc(C(c2ccccc2)(c2ccccc2F)n2ccnc2)cc1 (stereo unspecified) | 99&99
CCOc1ccc(NC(=O)[C@H](C(C)CC)N2Cc3ccccc3C2=O)cc1 (stereo partly specified) | 99
Cc1cc(C)n(CCc2nc3c4ccccc4nc(=S)n3[nH]2)n1 | 98
COC(=O)c1ccc(C=Nc2ccc3oc(-c4ccc(C)cc4)nc3c2)cc1 | 95
O=c1[nH]c2cc(Cl)ccc2n(Cc2ccccc2)c1=O | 96
O=C(CSc1nnc(COc2ccccc2)o1)NCc1ccccc1 | 100
COc1ccc(-c2nn(-c3ccccc3)cc2C(=O)N2CCCCC2)cc1OC | 99
COc1ccccc1Nc1ccc(N=Cc2ccc(F)c(F)c2)cc1 | 87
Cc1cccc(CN2C(=O)/C(=C\c3ccc(C(=O)N4CCCC4)cc3)Oc3ccccc32)c1 | 95
Fc1ccc(-c2nc3ccccc3[nH]2)cc1 | 100
CC1CC(C)CN(C(=O)c2ccc(CSc3nc4ccncc4[nH]3)cc2)C1 (stereo unspecified) | 101
CC1CC(C)(C)N(C(=O)c2ccccc2F)c2ccccc21 (stereo unspecified) | 99
O=C(c1ccc(O)cc1)N1Cc2ccccc2NC1=S | 97
CCc1ccc(-n2[nH]c(=O)c(/C=c3/c(C)c(C#N)c4nc5ccccc5n4c3=O)c2O)cc1 | 96
CSc1ccc(CCNC(=O)Nc2cn(C)c(=O)c3ccccc23)cc1 | 82
c1ccc(C2CC(c3ccccc3)n3nnnc3N2)cc1 (stereo unspecified) | 104
CCCCC(=O)Nc1nn2c(-c3cccc(C)c3)nnc2s1 | 104
O=C(c1ccc(Cl)cc1)n1c(=O)oc2cc(Cl)ccc21 | 100
CCCCN1C(=O)/C(=C(\C#N)C(N)=O)c2ccccc21 | 100
CC(C)C(=O)Nc1ccc(CN2CCOCC2)cc1 | 107
COc1cccc(-c2noc(C(C)Oc3ccccc3)n2)c1 (stereo unspecified) | 97
COc1ccc(C(=O)CSC2=NCCCCCC2)cc1 | 65*
Cc1ccc(NC(NC(=O)c2cccs2)C(=O)c2ccccc2)cc1 (stereo unspecified) | 100
O=C(Cn1cnc2c(oc3ccccc32)c1=O)Nc1ccccc1F | 98
COc1ccc(-c2nc(-c3cccs3)no2)cc1 | 104
COc1ccc(NC(=O)CCCn2c(=O)c3sccc3n(CC(=O)C(C)(C)C)c2=O)cc1 | 101
C(=Nc1ccc(Cc2ccc(N=Cc3ccccn3)cc2)cc1)c1ccccn1 | 101
COc1cccc(OCC(=O)NC(C)C)c1 | 103
CC(NC(=O)Cc1ccccc1)P(=O)(O)c1ccccc1 (stereo unspecified) | 103
CCc1ccc(NC(=O)Nc2nnc(N(C)Cc3ccccc3)s2)cc1 | 102
Cc1cc2ccccc2n1CCNC(=O)c1ccc2c(c1)OCO2 | 93
CN(C(=O)COC(=O)c1cnc(Cl)c(Cl)c1)C1CCCCC1 | 103
COc1cccc(-n2c(=O)c3sccc3n(Cc3ccc(C(C)(C)C)cc3)c2=O)c1 | 98
O=C(OCC(=O)c1ccc(Cl)cc1Cl)c1ccccn1 | 106
CCN(CC)S(=O)(=O)c1ccc2oc(C(=O)NC3CCCCC3C)c(C)c2c1 (stereo unspecified) | 97
Cc1ccccc1C(=O)OCC(=O)Nc1cccc(C#N)c1 | 101
CN1C2CCC1C(C(=O)O)C(OC(=O)c1ccccc1)C2 (stereo unspecified) | 96
More compounds:
SMILES | VACV E9 pol inh
CC1(C)CC(=O)C(C(O)c2ccccc2)C(C)(C)N1 (stereo unspecified) | 101
O=C(CCn1c(=O)oc2ccccc21)NCc1ccccc1 | 99
Cc1ccc(C(=O)N/C(=C/c2cccs2)C(=O)NCc2ccccc2)cc1 | 100
CC(=O)Oc1ccc(Cl)c2cccnc12 | 100
COc1ccccc1N=Cc1sc2ccccc2c1O | 100
O=C(CSc1nc2ccccc2o1)NCC12CC3CC(CC(C3)C1)C2 | 100
COc1ccccc1CNC(=O)C1c2ccccc2C(=O)N2CCc3ccccc3C12 (stereo unspecified) | 100
CCOC(=O)N1CCN(c2cc(C(F)(F)F)nc3c(Cl)cccc23)CC1 | 104
Cc1ccc(-n2c(C)nnc2SCC(=O)N(c2ccccc2)C(C)C)cc1 | 95
COC(=O)c1ccc(-c2ccco2)n1CC(=O)NC(C)C | 101
CCN(CC)CCCn1c(-c2ccccc2)cn2c3ccccc3nc12 | 100
Nc1ccc(-n2cnnn2)cc1 | 93
CC(C)(C)OC(=O)N1CCN(c2ncnc3nc[nH]c23)CC1 | 91
CC(C)c1ccc(NS(=O)(=O)c2ccc(N3C(=O)CCC3=O)cc2)cc1 | 108
N#Cc1c(C(F)(F)F)cc(-c2ccccc2)n(N)c1=O | 102
COc1ccc(/C=c2\oc3cccc4c(OC)ccc(c2=O)c34)cc1 | 100
Cc1ccc(C)c(SCC(=O)NC(C)C(c2ccccc2)N2CCOCC2)c1 (stereo unspecified) | 94
Cc1cc(N)n(-c2nc3ccccc3s2)n1 | 98
COc1ccc(Cc2nn3c(-c4ccccc4Br)nnc3s2)cc1 | 96
COc1ccc(N)cc1N=Cc1ccc(C#N)cc1 | 101
COc1cccc(CNC(=O)c2cnn3c(C)c(Cc4c(C)cc(C)cc4C)c(C)nc23)c1 | 85
CC(=O)N1CCC(C(=O)NCc2cc3ccccc3s2)CC1 | 91
C/C=C/C(=O)NCC1OCCc2ccccc21 (stereo unspecified) | 100
CC1C(c2ccccc2)OCCN1C(=O)CCN1C(=O)c2ccccc2C1=O (stereo unspecified) | 110
O=C(CSc1ncnc2ccccc12)Nc1cc(C(F)(F)F)ccc1Cl | 100
CC1(C)C(c2ccccc2)=[N+]([O-])C(c2ccc(Br)cc2)N1O (stereo unspecified) | 100
Cc1cc(NC(=O)COCC(=O)O)ccc1-n1cnnn1 | 87
COc1cccc(CNC(=O)c2nnc(CS(=O)(=O)c3ccccc3)o2)c1 | 105
CC(=O)OC1CCN(c2cc(C(F)(F)F)nc3cc(Cl)cc(Cl)c23)CC1 | 104
O=C1CSC(=O)N1CC(O)CCl (stereo unspecified) | 102
Cc1onc(-c2c(F)cccc2Cl)c1C(=O)NC1CCSC1=O (stereo unspecified) | 101
CN(Cc1ccccc1)C(=O)c1ccc(CSc2nc3ccncc3n2Cc2ccccc2)cc1 | 114
COc1ccc(/C=C/C(=O)OCc2ccccc2)cc1OC | 99
O=S(=O)(Cc1ccccc1)N(O)c1ccccc1 | 83
N#CCSc1nc2nccnc2c(=O)n1CCc1ccccc1 | 105
Clc1ccc(-c2csc3ncnn23)cc1 | 108
Cc1nc2ccccc2n1CCCOc1ccccc1 | 100
COc1ccc(-c2nnc(NC(=O)c3ccccc3C)s2)c(OC)c1 | 91
CCCn1c(=NC(=O)C(CC)c2ccccc2)c(C(=O)OCC)cc2c(=O)n3ccccc3nc21 (stereo unspecified) | 92
Cn1c(C(=O)NCC2CCCO2)cc2c(=O)n(C)c3ccccc3c21 (stereo unspecified) | 104
O=C(NCc1ccco1)c1ccc(Cn2c(=S)[nH]c3ccc(Br)cc3c2=O)cc1 | 100

Retrieved by compound from the entries so far:
SMILES | VACV E9 pol inh
COc1ccc(-c2nnc(NC(=O)c3ccccc3C)s2)c(OC)c1 | 91
CN(Cc1ccccc1)C(=O)c1ccc(CSc2nc3ccncc3n2Cc2ccccc2)cc1 | 114

From PubChem
